Screening results as filed in PubChem BioAssay.
YB-1 expression = YB-1 expression inhibition | delta delta Cp (YB-1 minus CDIP) (concentration not given with the values) | U2OS, qRT-PCR YB-1 vs CDIP delta delta Cp, 16 h; stronger effect = higher value; zero = DMSO, each unit about twofold | 30,000 tested, 0.37% active;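 active means delta delta Cp rounded down to an integer at or above 3, about 3 SD of DMSO wells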;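 further: higher means less YB-1 transcript or more CDIP transcript relative to DMSO; stock transfer was 100 nL into about 100 µL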
* = called active by the depositor. Only part of the results is shown; the hit share may differ from the screen's.

molecule	YB-1 expression
O=C(NCC(F)(F)F)[C@@H]1c2ccccc2C(=O)N(CC23CC4CC(CC(C4)C2)C3)[C@H]1c1ccc(CO)cc1	-0.17
COc1ccc(CN2C(=O)[C@@H]3[C@H]4C(=O)O[C@H](c5ccccc5)[C@@H](C)N(C)C(=O)CC/C=C/[C@H]4O[C@@]34C=CCN(Cc3ccccc3)C(=O)[C@@H]24)cc1	0.0045
NCCCCCNC(=O)[C@@H]1C[C@@H]2C(=O)NCC(=O)N2[C@@H]1c1cccc(OCCO)c1	-0.25
COC(=O)CCCCCCC(=O)N/N=C/c1ccc(OCCCN(C)C)cc1	0.05
C[C@@H]1CN([C@@H](C)CO)C(=O)CCCn2nncc2CO[C@@H]1CN(C)Cc1ccc(O)cc1	-0.44
O=C(N/N=C/c1ccccc1[N+](=O)[O-])c1ccccc1O	-0.15
C[C@H](CO)N1C[C@H](C)[C@@H](CN(C)C(=O)OCc2ccccc2)OCc2cnnn2CCCC1=O	-0.028
CN(C)CCCOc1ccc(/C=N/NC(=O)c2ccccc2O)cc1	0.13
CC(C)(C)OC(=O)CC[C@]12N=C(c3ccc(OCCCO)cc3)O[C@H]1c1ccccc1CN(CCS(=O)(=O)c1ccccc1)C2=O	0.44
COC(=O)CCCCCCC(=O)N/N=C/c1c(CO)cnc(C)c1O	0.031
COC(=O)[C@@]1(Cc2ccccc2CN=[N+]=[N-])N=C(c2ccc(OCCCO)cc2)O[C@H]1c1ccccc1N=[N+]=[N-]	-0.33
CC(C)COC(=O)N(C)C[C@@H]1OCc2cnnn2CCCC(=O)N([C@H](C)CO)C[C@@H]1C	-0.046
COC(=O)CCCCCCC(=O)N/N=C/c1ccc(-n2ccnc2)cc1	0.3
O=C(NO)c1cccc(C(=O)N/N=C/c2ccc(Oc3ccccc3)cc2)c1	0.039
CCOC(=O)N(C)C[C@H]1OCc2cn(nn2)CCCC(=O)N([C@H](C)CO)C[C@H]1C	0.098
O=C(N/N=C/c1cn(S(=O)(=O)c2ccccc2)c2ccccc12)c1ccccn1	0.032
C[C@H]1CN([C@@H](C)CO)C(=O)CCCn2cc(nn2)CO[C@@H]1CN(C)S(=O)(=O)c1cccs1	0.69
CC(C)(C)OC(=O)Nc1cccc(/C=N/NC(=O)CCCCC(=O)NO)c1	0.095
COCCCNC(=O)[C@@]1(Cc2ccccc2)N=C(c2ccc(OCCCO)cc2)O[C@H]1c1ccccc1	0.2
C[C@@H]1CN([C@@H](C)CO)C(=O)CCCn2cc(nn2)CO[C@@H]1CN(C)C(=O)c1ccccc1	-0.002

4 of the compounds above, as labelled records.
O=C(N/N=C/c1cn(S(=O)(=O)c2ccccc2)c2ccccc12)c1ccccn1
  YB-1 expression: 0.032

C[C@H]1CN([C@@H](C)CO)C(=O)CCCn2cc(nn2)CO[C@@H]1CN(C)S(=O)(=O)c1cccs1
  YB-1 expression: 0.69

CC(C)(C)OC(=O)Nc1cccc(/C=N/NC(=O)CCCCC(=O)NO)c1
  YB-1 expression: 0.095

COCCCNC(=O)[C@@]1(Cc2ccccc2)N=C(c2ccc(OCCCO)cc2)O[C@H]1c1ccccc1
  YB-1 expression: 0.2

Continued.
molecule	YB-1 expression
C=CC[C@]1(C(=O)NCc2ccccc2)N=C(c2ccc(OCCCO)cc2)O[C@H]1c1ccccc1	0.5
C[C@@H]1CN([C@H](C)CO)C(=O)CCCn2cc(nn2)CO[C@H]1CN(C)S(=O)(=O)c1ccc(-n2cccn2)cc1	0.14
CN(CCO)c1ccc(/C=N/NC(=O)c2ccccc2O)cc1	0.26
COCCOC(=O)N1C(=O)[C@@]2(c3cc(C#Cc4ccc(OC)cc4)ccc31)[C@H](c1ccc(O)cc1)N1[C@H](c3ccccc3)[C@H](c3ccccc3)OC(=O)[C@H]1[C@@H]2C(=O)NC[C@H](O)c1ccccc1	-0.3
O=C(CS)NCCCCCCNC(=O)[C@H]1C[C@H]2C(=O)NCC(=O)N2[C@H]1c1cccc(OCCO)c1	0.17
C[C@@H]1CN([C@@H](C)CO)C(=O)CCCn2nncc2CO[C@@H]1CN(C)C(=O)NC1CCCCC1	-0.093
O=C(O)CCCCCCC(=O)N/N=C/c1ccc(Br)s1	0.11
O=C(N/N=C/C(Br)=C/c1ccccc1)c1ccccn1	0.076
C[C@H]1CN([C@@H](C)CO)C(=O)CCCn2cc(nn2)CO[C@H]1CN(C)S(=O)(=O)c1ccc(Oc2ccccc2)cc1	-0.38
Cc1cccc(CN(C)C[C@H]2OCc3cnnn3CCCC(=O)N([C@@H](C)CO)C[C@H]2C)c1	0.38
O=C(N=NC=C1C=CN(O)C=C1)c1ccccn1	-0.68
C[C@@H]1CN([C@@H](C)CO)C(=O)CCCn2nncc2CO[C@@H]1CN(C)C(=O)Nc1ccc2c(c1)OCO2	0.22
C[C@@H]1CN([C@@H](C)CO)C(=O)CCCn2cc(nn2)CO[C@@H]1CN(C)C(=O)C1CCCCC1	-0.46
C[C@H]1CN([C@@H](C)CO)C(=O)CCCn2nncc2CO[C@@H]1CN(C)Cc1ccc(Cl)c(Cl)c1	-0.02
C[C@@H]1CN([C@@H](C)CO)C(=O)CCCn2nncc2CO[C@@H]1CN(C)Cc1ccc(C(F)(F)F)cc1	0.24
O=C(NO)c1ccc(C(=O)N/N=C/c2cccc(O)c2)cc1	0.6
C[C@H]1CN([C@@H](C)CO)C(=O)CCCn2nncc2CO[C@@H]1CN(C)Cc1ccc(C(=O)O)cc1	-0.68
C[C@H]1CN([C@@H](C)CO)C(=O)CCCn2cc(nn2)CO[C@H]1CN(C)Cc1ccccc1C(=O)O	0.23
O=C(O)CCCCCC(=O)N/N=C/c1ccc[nH]1	-0.008
O=C(CCCCCCC(=O)Nc1ccccc1O)N/N=C/c1ccc(O)c2ccccc12	0.63

Later entries.
structure	YB-1 expression
C=CCNC(=O)[C@H]1[C@@H]2C(=O)O[C@@H](c3ccccc3)[C@@H](c3ccccc3)N2[C@@H](c2ccc(O)cc2)[C@]12C(=O)N(C(=O)OCCOC)c1ccc(C#Cc3ccc(OC)cc3)cc12	-0.47
C[C@@H]1CN([C@H](C)CO)C(=O)CCCn2nncc2CO[C@@H]1CN(C)Cc1ccc(O)cc1	-0.41
C[C@]1(C(=O)NCc2ccccc2)c2ccccc2C(=O)N(Cc2ccc(OC(F)(F)F)cc2)[C@H]1c1ccc(CO)cc1	0.13
O=C(O)CCCCCC(=O)N/N=C/c1ccncc1Br	-0.012
NC(=O)[C@@H]1[C@H]2C(=O)O[C@H](c3ccccc3)[C@H](c3ccccc3)N2[C@H](c2ccc(OCCO)cc2)[C@@]12C(=O)Nc1ccc(C#CC3(O)CCCCCC3)cc12	0.3
CCCNC(=O)[C@@H]1c2ccccc2C(=O)N(Cc2ccccc2OC)[C@H]1c1ccc(CO)cc1	-0.072
COc1cccc(OC)c1/C=N/NC(=O)c1cccc(C(=O)NO)c1	-0.94
C[C@H](CO)N1C[C@H](C)[C@H](CN(C)C(=O)CCCN(C)C)OCc2cn(nn2)CCCC1=O	-0.64
C[C@H]1CN([C@@H](C)CO)C(=O)CCCn2cc(nn2)CO[C@@H]1CN(C)Cc1ccccc1C(F)(F)F	-0.15
COc1cc(Br)cc(/C=N/NC(=O)c2ccccn2)c1O	0.61

Some of the entries above in another layout.
C[C@]1(C(=O)NCc2ccccc2)c2ccccc2C(=O)N(Cc2ccc(OC(F)(F)F)cc2)[C@H]1c1ccc(CO)cc1
  YB-1 expression: 0.13

O=C(O)CCCCCC(=O)N/N=C/c1ccncc1Br
  YB-1 expression: -0.012

NC(=O)[C@@H]1[C@H]2C(=O)O[C@H](c3ccccc3)[C@H](c3ccccc3)N2[C@H](c2ccc(OCCO)cc2)[C@@]12C(=O)Nc1ccc(C#CC3(O)CCCCCC3)cc12
  YB-1 expression: 0.3

Following part
structure	YB-1 expression
COc1ccc(-c2cnc3c(c2)C(=O)N([C@H](C)CO)C[C@H](C)[C@H](CN(C)C(=O)NC2CCCC2)O3)cc1	-0.33
C=CC[C@@]12N=C(c3ccc(OCCCO)cc3)O[C@@H]1c1ccccc1CN(Cc1ccccc1)C2=O	-0.44
O=C(CCCCCCC(=O)N/N=C\c1cccc(Br)c1)NO	-0.25
COC(=O)CCCCCCC(=O)N/N=C/C=C/c1ccccc1	0.67
O=C(CCCCCCC(=O)Nc1ccccc1O)N/N=C/C=C/c1ccccc1	0.26
Cc1cccc(S(=O)(=O)N(C)C[C@@H]2OCc3cn(nn3)CCCC(=O)N([C@H](C)CO)C[C@@H]2C)c1	0.18
CCOC(=O)N(C)C[C@H]1OCc2cn(nn2)CCCC(=O)N([C@H](C)CO)C[C@@H]1C	0.2
CC(C)NC(=O)N(C)C[C@H]1OCc2cn(nn2)CCCC(=O)N([C@H](C)CO)C[C@@H]1C	0.011
O=C(NO)c1cccc(C(=O)N/N=C/c2cc(O)ccc2O)c1	-1.1
C[C@H]1CN([C@@H](C)CO)C(=O)CCCn2cc(nn2)CO[C@H]1CN(C)C(=O)Nc1cccc(F)c1	-0.051
COC(=O)C(CC#Cc1ccc2c(c1)[C@]1(C(=O)N2)[C@H](C(=O)N2CCCCCCC2)[C@H]2C(=O)O[C@H](c3ccccc3)[C@H](c3ccccc3)N2[C@@H]1c1ccc(O)cc1)C(=O)OC	0.19
O=C(O)[C@@]1(CCS(=O)(=O)c2ccccc2)COC(c2ccc(OCCCO)cc2)=N1	-0.074
Cc1ccc(OC(=O)N(C)C[C@@H]2OCc3cn(nn3)CCCC(=O)N([C@H](C)CO)C[C@@H]2C)cc1	-0.4
O=C1O[C@H](c2ccccc2)[C@H](c2ccccc2)N2[C@H]1[C@@H](C(=O)NC[C@H](O)c1ccccc1)[C@]1(C(=O)Nc3ccccc31)[C@H]2c1ccc(O)cc1	-0.27
O=C(O)CCCCCCC(=O)N/N=C/c1ccoc1	0.00097
C[C@@H]1CN([C@@H](C)CO)C(=O)CCCn2nncc2CO[C@@H]1CN(C)C(=O)c1ccc(N2CCN(C)CC2)cc1	0.045
COc1ccc(NC(=O)O[C@@H](c2ccc(OC)c(O)c2)[C@H](CCO)OC)cc1	0.2
O=C(N1CCOCC1)[C@@]1(Cc2ccccc2)N=C(c2ccc(OCCCO)cc2)O[C@H]1c1ccccc1	0.22
O=C(N/N=C/c1ccc(N(c2ccccc2)c2ccccc2)cc1)c1ccccn1	-0.11
O=C(O)CCCCCCC(=O)N/N=C/c1ccc([N+](=O)[O-])s1	0.57
O=C(N/N=C/c1cc(Cl)cc(Cl)c1O)c1ccccc1O	0.19
O=C(CCCCCC(=O)Nc1ccccc1O)N/N=C/c1ccc(OCCO)cc1	0.17
C[C@@H]1CN([C@@H](C)CO)C(=O)CCCn2cc(nn2)CO[C@@H]1CN(C)Cc1ccc2c(c1)OCCN2C	-0.039
C=CCNC(=O)[C@H]1[C@@H]2C(=O)O[C@@H](c3ccccc3)[C@@H](c3ccccc3)N2[C@@H](c2ccccc2OCCO)[C@]12C(=O)N(C(=O)OCCOC)c1ccccc12	0.09
C[C@@H](O)[C@@H](O)[C@@H](O)C/C=N/NC(=O)c1ccccn1	-0.086
COc1cccc(NC(=O)N(C)C[C@@H]2OCc3cnnn3CCCC(=O)N([C@H](C)CO)C[C@@H]2C)c1	0.04
C[C@H](CO)N1C[C@H](C)[C@@H](CN(C)C(=O)Nc2ccc3c(c2)OCO3)OCc2cnnn2CCCC1=O	0.22
C[C@@H]1CN([C@H](C)CO)C(=O)CCCn2cc(nn2)CO[C@H]1CN(C)Cc1ccc(C(=O)O)cc1	0.27
O=C(NCCCCCNC(=O)/C(Cc1ccccc1)=N/O)OCc1ccccc1	0.76
C[C@H](CO)N1C[C@H](C)[C@H](CN(C)S(=O)(=O)c2ccc(C#N)cc2)Oc2ncc(C#CCN(C)C)cc2C1=O	-0.13
COc1ccc(-c2cnc3c(c2)C(=O)N([C@H](C)CO)C[C@H](C)[C@H](CN(C)S(=O)(=O)c2cccs2)O3)cc1	-0.45
COc1cccc(-c2cnc3c(c2)C(=O)N([C@H](C)CO)C[C@H](C)[C@H](CN(C)S(=O)(=O)c2cccs2)O3)c1	-0.13
C[C@@H]1CN([C@@H](C)CO)C(=O)CCCn2nncc2CO[C@H]1CN(C)S(=O)(=O)c1cn(C)cn1	0.25
O=C(NO)c1cccc(C(=O)N/N=C/c2ccccc2C(=O)O)c1	0.32
O=C(CCCCCCC(=O)Nc1ccccc1O)N/N=C/c1ccc(S(=O)(=O)O)o1	-0.15
C[C@H](CO)N1C[C@H](C)[C@H](CN(C)C(=O)Nc2ccc(F)cc2)Oc2ncc(-c3ccccc3)cc2C1=O	0.11
CC(C)NC(=O)N(C)C[C@H]1OCc2cnnn2CCCC(=O)N([C@@H](C)CO)C[C@H]1C	-0.32
O=C(CCCCCCC(=O)Nc1ccccc1O)N/N=C/c1cc(Cl)cc(Cl)c1O	-0.11
C[C@H](CO)N1C[C@H](C)[C@@H](CN(C)Cc2ccc(C(F)(F)F)cc2)OCc2cnnn2CCCC1=O	-0.057
O=S(=O)(N[C@H]1CCN(Cc2ccc(OCCO)cc2)C1)c1cc(Cl)ccc1Cl	0.053
O=C1N(Cc2ccccc2)Cc2ccccc2C[C@]12N=C(c1ccc(OCCCO)cc1)O[C@@H]2c1ccccc1	0.2
C[C@H](CO)N1C[C@H](C)[C@H](CN(C)C(=O)NC2CCCCC2)Oc2ncc(-c3ccccc3)cc2C1=O	0.4
COc1cccc(S(=O)(=O)N(C)C[C@H]2OCc3cnnn3CCCC(=O)N([C@@H](C)CO)C[C@@H]2C)c1	0.16
C[C@H](CO)N1C[C@H](C)[C@@H](CN(C)Cc2ccc(Oc3ccccc3)cc2)OCc2cn(nn2)CCCC1=O	-0.14
COc1ccc(C#Cc2cnc3c(c2)C(=O)N([C@H](C)CO)C[C@H](C)[C@H](CN(C)S(C)(=O)=O)O3)cc1OC	-0.38
COc1cc(Br)cc(/C=N/NC(=O)CCCCCCC(=O)Nc2ccccc2O)c1O	0.23
